# Source: PubChem
# PABP FP inh: blocks human PABP binding to poly(A) RNA; fluorescence polarization; P11940; 1% of 290,000 active; inhibition, % at 35 µM;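 active means 50% or more with normal probe brightness, or confirmed in later tests; about a fifth of its hits are not listed in these tables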;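 further: calls also rest on retests at 20 µM and on dose response follow-up; controls were probe without protein and protein plus probe with vehicle; some compounds called inactive have numbers as strong as hits; many hits fall short of the cut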
# Env fusion inh: inhibitors of HIV Env-mediated cell fusion. HeLa-JRFL Env/CEM21 cell fusion, luciferase. inhibition, % at 12.3 µM. 1.1% of 360,000 active. AID 651610;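 active means mean replicate inhibition score of at least 50 and every replicate individually at or above 50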;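 further: 0% = plate neutral controls and 100% = maraviroc near 300 nM; one replicate is shown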
# Yeast UUG start: alters start codon recognition fidelity in yeast; S. cerevisiae UUG-firefly luciferase reporter, luminescence/redox ratio; activity score, % at 18.7 µM; 0.13% of 350,000 active; AID 602363;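 active means replicate mean at a twofold rise or more, about +100% in these data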;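 further: firefly luciferase made from a UUG start codon reports start codon fidelity; reporter light over untreated wells divided by growth signal over untreated wells; some hits fall short of that in this replicate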
# MT1-MMP act inh: inhibitors of human MT1-MMP activation; HT1080 RFP-PRO-GFP cells, GFP/RFP ratio fluorescence, overnight; percent of plate control window, DMSO zero; GFP/RFP ratio change, % at 20 µM; 0.061% of 360,000 active; AID 651647;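 active means GFP/RFP ratio change of at least 30% with cell ATP level not reduced by more than half and red fluorescence within 50% of control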; further: strong numbers were not always called active
#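 Assay system – RFP-PRO-GFP reporter HT1080 cells · Compound dosing – single dose of 20 µM compound, 1% DMSO final · Incubation – overnight compound exposure at 37 °C · Measure – GFP/RFP fluorescence ratio · Benchmarks – DMSO wells and RFP-L50D-GFP cells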
# eIF4H FP inh: inhibitors of RNA binding by human eIF4H; Q15056; eIF4H fluorescence polarization binding assay; inhibition, % at 35 µM; 0.94% of 290,000 active;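 active means 50% or more with normal probe brightness, or confirmed in later tests; about a fifth of its hits are not listed in these tables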;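 further: calls also rest on retests at 20 µM and on dose response follow-up; 0% = protein and probe with vehicle and 100% = probe without protein; strong numbers were not always called active; many hits fall short of the cut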
# Rce1 inh: blocks yeast Ras-converting enzyme; Q03530; yeast membranes, quenched prenylated peptide cleavage fluorescence; calls only; 0.27% of 290,000 active; AID 2563;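 active means fall in fluorescence gain of 50% or more versus controls, with final raw signal at or below 3038400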;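 further: plate controls were neutral control wells for no effect and wells lacking membranes for full effect; tested at 10 µM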
# Target sequence (Q03530 whole entry, looked up): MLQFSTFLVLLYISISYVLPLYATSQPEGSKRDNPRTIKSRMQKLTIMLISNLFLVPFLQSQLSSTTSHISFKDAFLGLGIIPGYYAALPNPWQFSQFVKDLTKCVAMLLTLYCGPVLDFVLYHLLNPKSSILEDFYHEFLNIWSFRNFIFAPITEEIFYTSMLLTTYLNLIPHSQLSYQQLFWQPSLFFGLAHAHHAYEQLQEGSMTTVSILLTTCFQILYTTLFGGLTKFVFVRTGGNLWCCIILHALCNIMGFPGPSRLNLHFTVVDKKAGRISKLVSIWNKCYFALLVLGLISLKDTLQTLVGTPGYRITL
# CSC inhib: blocks cancer stem cells. cancer stem cell-like cells viability, luminescence. inhibition, % at 7.5 µM. 1.1% of 300,000 active. AID 2717;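 active means mean at 75% or more and at least half the replicates too; tested in HMLE shEcad cells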;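 further: 0% = median of negative and 100% = median of positive control wells; the first replicate is given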
# eIF4H FP inh retest: second read-out of eIF4H FP inh, no call of its own (marks repeat the call); inhibition, %; compound at 20 µM; confirmation average;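 mean of two retest wells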
# PABP FP inh retest: also measured in PABP FP inh; calls as there; inhibition, %; compound at 20 µM; confirmation repeats;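 mean of two retest wells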
# MT1-MMP act inh RFP: also measured in MT1-MMP act inh; calls as there; RFP signal change, %; measured here: RFP expression control read;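 0 = vehicle wells; hits needed this value within 50% of zero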
# * marks the source's active call; other numbers are inactive results; i = inactive; nt = not tested or not shown; & = joins results of further samples.
SMILES,PABP FP inh,Env fusion inh,Yeast UUG start,MT1-MMP act inh,MT1-MMP act inh RFP,eIF4H FP inh,Rce1 inh,CSC inhib,others
CNCc1c(C)nn(-c2ccccc2)c1C,31,-9,nt,1,4,-5,i,-3,
COc1ccc(N2CCN(C(=O)c3ccccc3NC(=O)C3=C(C)OCCS3)CC2)cc1,-6,2,-5,2,4,-4,i,-7,
Cn1c(-c2ccccc2)cnc1SCC(N)=O,-3,-37,1,2,1,1,i,nt,
COc1ccc(CNC(=S)N/N=C/c2ccc(OC)c(OC)c2)cc1,8,nt,-26,2,5,5,i,nt,
COc1ccc(NS(=O)(=O)c2ccc(-n3nnc4ccccc43)c([N+](=O)[O-])c2)cc1,-8,nt,-5,-5,3,14,i,19,
COc1ccc(C(=O)Nc2ccc(N3CCCCC3)cc2)cc1Br,11,-29,nt,5,5,2,i,-18,
Cc1ccc(NC(=O)CC(=O)c2ccccc2)cc1C,12,-33,-14,3,-1,-2,i,-2,
CCN1C(=O)/C(=C/c2cnn(CC)c2C)SC1=S,-6,-3,nt,-4,-7,1,i,1,
COc1ccc2[nH]c(C)c(C(=O)CN(C)C)c2c1,-7,nt,-5,-2,2,1,i,0,
Nc1nc(Cn2nnc(-c3ccccc3F)n2)nc(N2CCOCC2)n1,-19,nt,-9,1,0,-4,i,-11,
O=C(CCCC(=O)N(CC(=O)NC1CCCCC1)Cc1ccc2c(c1)OCO2)Nc1ccccn1,1,nt,-2,2,-8,-5,i,2,
O=C(Nc1ccccc1)c1cc2ccccc2c(=O)s1,-8,26,-12,-4,-5,0,i,8,
C=CCSc1nnc(CNC(=O)c2ccccc2C)n1C(C)C,2,6,nt,3,3,2,i,-3,
CCOC(=O)C1CCCN(C(=O)C2CCN(S(=O)(=O)CC)CC2)C1 (configuration not stated),5,-18,-10,0,4,9,nt,-11,
Cc1cc(C)c2c(-n3cccc3)c(C(=O)NNS(=O)(=O)c3ccc(F)cc3)sc2n1,-1,-34,8,-1,-3,-5,i,1,
O=C(N/N=C/c1ccc(N2CCOCC2)s1)c1ccc(NS(=O)(=O)c2cccs2)cc1,24,-4,-15,-5,1,-6,i,3,
CN(C)c1ccc(C2N(c3ccc(Cl)cc3)C(=O)C3CCCN32)cc1 (configuration not stated),6,6,-12,-1,3,3,i,3,
CS(=O)(=O)N1CCC(Oc2ccccc2C(=O)NCCCc2cccnc2)CC1,2,20,nt,-4,1,6,i,11,
CC1(C(=O)NC(=S)N(CCC#N)Cc2cccnc2)CC1(Cl)Cl (configuration not stated),-1,nt,nt,nt,nt,12,i,2,
O=C(N/N=C/c1ccccc1Cl)c1[nH]c2ccc(Br)cc2c1-c1ccccc1,-19,-2,nt,9,-4,-2,i,68,
Fc1cccc(Cl)c1Cn1ncc2ccccc21,9,-6,-5,-2,0,0,i,-4,
O=C(c1ccc(-c2ccccc2)cc1)N1CCN(c2ccccc2F)CC1,1,-76,0,0,0,-3,i,-5,
COc1ccc2c3c(cccc13)C(=O)N(O)C2=O,8,44,-9,-18,-1,95,i,6,eIF4H FP inh retest=-8;PABP FP inh retest=6
CCCCCC(C)NC(=S)NC(=O)c1cc(S(=O)(=O)N2CCOCC2)ccc1C (configuration not stated),-3,nt,nt,-7,-13,-6,i,16,
CCc1ccc(S(=O)(=O)Nc2ccc(Cl)cn2)cc1,7,-11,-12,-1,-1,15,i,-10,
CCOC(=O)C1CCCN(C(=O)c2cc3nc(-c4cccc(OC)c4)cc(C(F)(F)F)n3n2)C1 (configuration not stated),-2,38,-7,8,-6,1,i,-20,
Cc1ncc(CO)c(/C=N/NC(=O)c2cccc(S(=O)(=O)N3CCCC3)c2)c1O,nt,11,-33,-7,0,nt,i,-1,
O=C(/C=C/c1ccc(S(=O)(=O)N2CCOCC2)cc1)Nc1ccc(F)c(F)c1F,nt,-6,4,-12,-25,nt,nt,5,
COc1ccc(CCNC(=O)c2ccc3nc[nH]c3c2)cc1,2,-1,-23,0,2,11,i,-1,
CC1CCN(C2=C(NS(=O)(=O)c3ccc(Br)cc3)C(=O)c3ccccc3C2=O)CC1,16,13,-13,8,-4,-4,i,35,
CCC(=O)NNc1nc2c(C)cc(C)cc2s1,-1,-1,nt,-1,4,2,i,-2,
COc1cccc(C(=O)Nc2ccccc2C(=O)NC2CC2)c1,-11,5,3,-3,2,-9,i,13,
COc1ccc(S(=O)(=O)N2C[C@H]3CON(C)[C@H]3C[C@H]2c2ccc(-c3cccc(F)c3)cc2)cc1,nt,11,-12,0,-5,nt,nt,nt,
COc1ccc(CN2CC(C(=O)N3CC(C)CC(C)C3)CC2=O)cc1 (configuration not stated),nt,-3,-2,1,3,nt,i,-4,
COc1ccc(C(=O)N2CCCC(c3nc(-c4cc(OC)c(OC)c(OC)c4)no3)C2)cc1 (configuration not stated),-10,nt,17,15,-3,-8,i,11,
Cc1ccc(C(C#N)N2CCOCC2)cc1 (configuration not stated),7,nt,-9,-2,7,6,i,nt,
COc1cc(C(F)(F)F)nc2ccc(C#CCOC(=O)Nc3ccccc3)cc12,1,12,-9,-1,-4,0,i,16,
O=C(O)CCSc1ccc2ccccc2n1,5&-7,-75,-26&-24,3&4,6&4,4&-16,i,0&1,
CCOC(=O)c1ccc(NC(=O)NC2CC3CCC(C2)N3C(=S)NC)cc1 (configuration not stated),27,-7,-18,1,-1,-3,i,8,
O=C(COc1ccc(F)cc1)N1c2ccccc2CCc2ccccc21,0,10,nt,-4,-8,-4,i,-7,
C#Cc1cccc(NC(=O)Cc2cccs2)c1,-6,-2,-4,-2,-1,-7,i,10,
OC(COc1ccccc1)CN1CCOCC1 (configuration not stated),-3,-79,-10,-2,5,0,i,-3,
CN=C(Nc1ccc(C(=O)OC)cc1)SC1CC(=O)N(c2ccccc2F)C1=O (configuration not stated),-3,nt,-23,1,-5,-2,i,0,
O=C(COC(=O)c1ccccc1Nc1ccccc1)Nc1ccccc1,-9,19,nt,2,2,-12,i,13,
CC(=O)N(Cc1cc2cc(C)ccc2[nH]c1=O)c1cccc(C)c1C,-6,-72,-14,1,-1,8,i,3,
CC1(C(=O)NC2CCCC2)CCC(=O)N1CCC1=CCCCC1 (configuration not stated),0,nt,-7,14,9,-4,i,-3,
COc1cc(OC)c(C(=O)NCc2ccc3c(c2)OCO3)cc1OC,-8,14,-12,0,2,13,nt,-7,
O=C(C[C@H]1CC[C@@H]2[C@H](COC[C@H](O)CN2C(=O)c2cnccn2)O1)NCc1ccc(Cl)cc1,nt,10,-8,1,3,nt,nt,nt,
Cc1cc(=O)[nH]c(SCC(=O)Nc2nnc(CC(C)C)s2)n1,-1,nt,-12,3,-9,10,i,-3,
CCN(C/C=C/c1ccccc1OC)Cc1ccccc1,18,12,1,-2,0,10,i,1,

# (cont.)
SMILES,PABP FP inh,Env fusion inh,Yeast UUG start,MT1-MMP act inh,MT1-MMP act inh RFP,eIF4H FP inh,Rce1 inh,CSC inhib,others
CCC(C)NC(=O)COC(=O)c1ccc(Cl)cc1O (configuration not stated),-2,7,nt,-1,3,-1,i,-19,
Cc1cccc(-n2c(Cc3ccccc3)n[nH]c2=S)c1,-10,-5,-13,-2,-1,6,i,4,
Cc1[nH]c(=O)c(C(=O)c2ccccc2O)cc1C(=O)O,3,-2,3,-2,4,1,i,-6,
CC1(C(=O)NS(=O)(=O)c2ccc(Cl)s2)CCN1C(=O)Cc1cc(F)ccc1F (configuration not stated),nt,-9,-6,2,4,nt,nt,nt,
CCOc1ccc2c(c1)C(C)=CC(C)(C)N2C(=O)Nc1ccccc1F,0,-2,0,-1,3,8,i,0,
Cc1csc(NC(=O)CSc2ccc3nnc(CCNS(=O)(=O)c4ccccc4)n3n2)n1,-6,-22,nt,2,4,12,i,7,
CN(CC(=O)Nc1ccc(Cl)c(C(F)(F)F)c1)C(=O)CCCc1nc2ccccc2c(=O)[nH]1,nt,18,-1,6,-3,nt,nt,-4,
Cc1cc(C(=O)NNC(=O)NC(C)C)no1,-6,-1,-20,2,2,0,i,6,
COc1ccccc1C(CNC(=O)CCNS(=O)(=O)c1ccc(Br)cc1)N1CCCC1 (configuration not stated),nt,4,-23,-2,-1,nt,nt,nt,
COc1ccc(CNC(=O)COC(=O)c2cnccn2)cc1,0,-25,-13,5,6,3,i,-3,
CN(C)C(=O)CSc1nc(-c2ccccc2)nc2c1CCCC2,17,nt,-12,4,1,-4,i,2,
CC(C)c1ccc(OCc2ccc(C(=O)N3CCCC3)o2)cc1,-2,-22,-12,2,-9,-3,nt,-3,
O=C(NCc1cccnc1)Nc1ccc(F)cc1F,-4,-49,nt,1,-5,-2,i,14,

# No new results follow: entries from further up.
SMILES,PABP FP inh,Env fusion inh,Yeast UUG start,MT1-MMP act inh,MT1-MMP act inh RFP,eIF4H FP inh,Rce1 inh,CSC inhib,others
CC(=O)N(Cc1cc2cc(C)ccc2[nH]c1=O)c1cccc(C)c1C,-6,-72,-14,1,-1,8,i,3,
CC1(C(=O)NC2CCCC2)CCC(=O)N1CCC1=CCCCC1 (configuration not stated),0,nt,-7,14,9,-4,i,-3,
COc1cc(OC)c(C(=O)NCc2ccc3c(c2)OCO3)cc1OC,-8,14,-12,0,2,13,nt,-7,
O=C(C[C@H]1CC[C@@H]2[C@H](COC[C@H](O)CN2C(=O)c2cnccn2)O1)NCc1ccc(Cl)cc1,nt,10,-8,1,3,nt,nt,nt,
Cc1cc(=O)[nH]c(SCC(=O)Nc2nnc(CC(C)C)s2)n1,-1,nt,-12,3,-9,10,i,-3,
CCN(C/C=C/c1ccccc1OC)Cc1ccccc1,18,12,1,-2,0,10,i,1,
CCC(C)NC(=O)COC(=O)c1ccc(Cl)cc1O (configuration not stated),-2,7,nt,-1,3,-1,i,-19,
Cc1cccc(-n2c(Cc3ccccc3)n[nH]c2=S)c1,-10,-5,-13,-2,-1,6,i,4,
Cc1[nH]c(=O)c(C(=O)c2ccccc2O)cc1C(=O)O,3,-2,3,-2,4,1,i,-6,
CC1(C(=O)NS(=O)(=O)c2ccc(Cl)s2)CCN1C(=O)Cc1cc(F)ccc1F (configuration not stated),nt,-9,-6,2,4,nt,nt,nt,
CCOc1ccc2c(c1)C(C)=CC(C)(C)N2C(=O)Nc1ccccc1F,0,-2,0,-1,3,8,i,0,
Cc1csc(NC(=O)CSc2ccc3nnc(CCNS(=O)(=O)c4ccccc4)n3n2)n1,-6,-22,nt,2,4,12,i,7,
CN(CC(=O)Nc1ccc(Cl)c(C(F)(F)F)c1)C(=O)CCCc1nc2ccccc2c(=O)[nH]1,nt,18,-1,6,-3,nt,nt,-4,
Cc1cc(C(=O)NNC(=O)NC(C)C)no1,-6,-1,-20,2,2,0,i,6,
COc1ccccc1C(CNC(=O)CCNS(=O)(=O)c1ccc(Br)cc1)N1CCCC1 (configuration not stated),nt,4,-23,-2,-1,nt,nt,nt,
COc1ccc(CNC(=O)COC(=O)c2cnccn2)cc1,0,-25,-13,5,6,3,i,-3,
